Source: PubChem (Vanderbilt University)
GIRK2 act: GIRK2 channel activation | actives 0.05% (n = 63,000) | calls only for hits at 25 µM | HEK293-GIRK2 thallium flux, Thallos fluorescence | AID 1259325 | P48051;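 active means among the strongest 0.2% of first-round signals and kept after retests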;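 further: first round at about 10 µM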
Target sequence (P48051 whole entry, looked up): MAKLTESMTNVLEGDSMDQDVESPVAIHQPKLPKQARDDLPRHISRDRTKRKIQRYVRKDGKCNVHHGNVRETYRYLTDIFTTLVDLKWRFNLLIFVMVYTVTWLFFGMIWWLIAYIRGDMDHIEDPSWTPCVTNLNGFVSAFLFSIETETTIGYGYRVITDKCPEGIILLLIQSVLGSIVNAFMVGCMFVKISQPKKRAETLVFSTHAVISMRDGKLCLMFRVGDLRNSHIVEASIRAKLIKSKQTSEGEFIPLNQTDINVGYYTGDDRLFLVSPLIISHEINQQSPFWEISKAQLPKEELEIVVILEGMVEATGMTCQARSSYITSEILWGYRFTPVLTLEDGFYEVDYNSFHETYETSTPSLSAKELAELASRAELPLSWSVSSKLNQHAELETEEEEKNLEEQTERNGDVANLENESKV
Calls only; i = inactive; + = active, no number. Some of the compounds tested; rates above refer to the full screens.

GIRK2 act	smiles
i	COc1ccc(-n2ccn(CC(=O)NCCc3ccccc3)c(=O)c2=O)cc1
i	O=C(/C=C/c1ccsc1)NCC1CCN(C(=O)c2ccncc2)CC1
i	COc1ccc2c(c1)C=C(C(=O)Nc1ccc(F)cc1)C=CO2
i	CCc1cccc(NC(=O)c2cn(Cc3ccc(NC(=O)c4ccccc4F)cc3)cn2)c1
i	O=S(=O)(c1cccc(Cl)c1)N1CCC(c2nnc(C(F)(F)F)o2)CC1
i	COC(=O)c1ccc(CSc2nc3c(-c4ccccc4)c[nH]c3c(=O)[nH]2)o1
i	Cc1cc(NC(=O)c2csc(-c3ccccc3)n2)sn1
i	O=C(NCCC1=CCCCC1)c1ccc(Br)o1
i	Cc1ccc(-c2cnoc2NC(=O)CSc2nc(-c3ccccc3)cc(=O)[nH]2)cc1
i	Cn1c(C2CCN(S(C)(=O)=O)CC2)nn(CC(=O)N2CCCC2)c1=O
i	COc1ccc2c(c1)c(CC(=O)NCc1ccc(C(F)(F)F)nc1)c(C)n2C(=O)c1ccc(Cl)cc1
i	CC1CC(C)CN(c2csc3ccc(F)cc3c2=O)C1 (centres undefined)
i	COc1cccc(/C=C2\Oc3c(ccc4c3CN(Cc3ccncc3)CO4)C2=O)c1
i	COc1ccc(Nc2c(C(=O)N3CCCCC3C)cnc3nc(C)ccc23)cc1OC (centres undefined)
i	CS(=O)(=O)N1CCC(C(=O)NCC2CCN(C(=O)Oc3ccccc3)CC2)CC1
i	CN1C(=CC=Cc2cc[n+](CCC[N+](C)(C)C)c3ccccc23)Sc2ccccc21
i	CCOC(=O)c1cccc(NC(=O)CSc2nc3c(-c4ccccc4)c[nH]c3c(=O)n2C2CC2)c1
i	CCCCC/C=C/C/C=C/CCCCCCCC(=O)O
i	CC(=O)N1CCCC(c2nnc(-c3cccs3)o2)C1 (centres undefined)
i	CCc1nc2sc(C(c3ccc(F)c(F)c3)N3CCN(Cc4ccccc4)CC3)c(O)n2n1 (centres undefined)
i	COc1ccc(-c2cc3ccc4c(c3oc2=O)CN(C2CC2)CO4)cc1OC
i	Cc1ccc2c(c1)OCC(=O)N2Cc1nc(-c2ccc3c(c2)OCO3)no1
i	CCOC(=O)c1sc(NC(=O)c2nn(C)cc2C)c(C#N)c1C
i	COC(=O)NCC1(O)CCOc2ccccc21 (centres undefined)
i	Cc1cc(NC(=O)c2ccncc2)c2cc(F)cc(F)c2n1
i	Cn1nc(C2CCN(CCC3OCCCO3)CC2)n(-c2ccccc2)c1=O
i	COc1ccc(CNC(=O)Cn2ccn3nc(-c4ccc(C)cc4)cc3c2=O)cc1
i	CCCS(=O)(=O)Nc1cc(N2CCCS2(=O)=O)ccc1C
i	CC(=O)c1cccc(NC(=O)Cn2c(=O)nc(N3CCC(C)CC3)c3ccccc32)c1
i	O=C(NC1CC1)c1snc(-c2ccccn2)c1NC(=O)C1CC1
i	CCCCC[C@H](O)/C=C/[C@H]1C(=O)C[C@H](O)[C@@H]1C/C=C/CCCC(=O)O
i	CCc1ccc(S(=O)(=O)NCCOc2cc(C)cc(C)c2)s1
i	COc1ccc2c3c1O[C@H]1C[C@@H](O)C=C[C@@]31CCN(C)C2
i	CCOc1ccc(C(C)C)cc1S(=O)(=O)N(C)C1CCCCC1
i	O=C(c1ccc(Cl)s1)N1CC(Oc2nc3ccccc3s2)C1
+	O=C(NCC(c1cccs1)N1CCOCC1)C(=O)Nc1ccccc1F (centres undefined)
i	COC(=O)c1cn(Cc2cccc(Cl)c2)nc1S(=O)(=O)N1CCC(C)CC1
i	COCCCNC(=O)C1CCN(c2ncccc2-c2nc(-c3ccccc3)no2)CC1
i	O=C(NCCC(O)c1ccccc1)C(=O)Nc1ccon1 (centres undefined)
i	Cn1c(=O)c2c[nH]cc2n(C)c1=O
i	CCc1ccc(S(=O)(=O)Nc2ccc3c(c2)CCCN3S(=O)(=O)CC)cc1
i	COC(=O)c1ccc(Oc2coc3c4c(ccc3c2=O)OCN(C(C)C)C4)cc1
i	Cn1c(N2CCN(C(=O)Nc3ccc4c(c3)OCO4)CC2)nc2ccccc21
i	O=C(Nc1ccccc1C(F)(F)F)N1CC(c2nc(-c3cccc(Cl)c3)no2)C1
i	COc1ccc(Cl)cc1NC(=O)N1CCN(c2ccc3nnc(C4CC4)n3n2)CC1
i	CSc1cccc2sc(N3CCN(C(C)=O)CC3)nc12
i	COc1cccc(NC(=O)NCCOc2ccc(F)cc2)c1OC
i	O=C(Cc1cccs1)N1CCC(Cn2c(C(F)(F)F)nc3ccccc32)CC1
i	COCCn1c(-c2ccc(Cl)cc2Cl)nc2oc3ccccc3c(=O)c2c1=O
i	O=C(c1cc(-c2ccco2)[nH]n1)N1CCN(c2ccc(F)cc2)CC1
i	O=C(NCCC1=CCCCC1)c1ccc(Cn2c(=S)[nH]c3cc4c(cc3c2=O)OCO4)cc1
i	O=S(=O)(Cc1ccccc1Cl)NCC1CCN(c2cnccn2)CC1
i	Cc1cc2ccccc2n1CCCNC(=O)Cc1noc2ccccc12
i	COC(=O)c1cccc(NC(=O)c2sccc2S(=O)(=O)N2CCN(c3cccc(C)c3)CC2)c1
i	COC(=O)c1ccc(COc2coc(CSc3nncn3C)cc2=O)o1
i	COc1cc(N/C=C(/C#N)S(=O)(=O)c2ccc(Cl)cc2)cc(OC)c1
i	Cc1ccc(-c2cc3c(=O)n(CC(=O)Nc4ccc(C)c(Cl)c4)ncn3n2)cc1
i	COc1ccc(CN2C(=O)C(O)(CC(C)=O)c3c(Cl)ccc(Cl)c32)cc1 (centres undefined)
i	NC(=O)c1ccc(NC(=O)CN2CC(c3nc(-c4cccs4)no3)C2)cc1
i	Cc1cn2c3c(=O)n(CC(=O)c4ccccc4)c(=O)n(C)c3nc2n1-c1ccccc1F

More structures
GIRK2 act	smiles
i	COc1ccc(S(=O)(=O)N2CCCc3cc(NC(=O)C4CCCC4)ccc32)cc1
i	COCCN(Cc1ccoc1)C(=O)c1ccccc1C(F)(F)F
i	Cc1cc[n+](CCCC[n+]2ccc(C)c3ccccc32)c2ccccc12
i	O=C(Nc1cccc2nsnc12)c1cc(-c2ccco2)on1
i	Cc1c(NS(=O)(=O)CCOc2ccccc2)c(=O)n(-c2ccccc2)n1C
i	CCCc1nnsc1C(=O)N(CCOC)Cc1ccoc1
i	Cc1nc2cc(NC(=O)CCC3NC(=O)c4ccccc4NC3=O)ccc2s1 (centres undefined)
i	O=C(Nc1ccccc1)c1cn(-c2cc(N3CCCCC3)ncn2)cn1
i	c1ccc(OCc2nc3ccccc3n2CC2CCN(Cc3ccccn3)CC2)cc1
i	Cc1ccc(C23CC4CC(CC(NC(=O)NC(C)(C)CO)(C4)C2)C3)cc1
i	c1cc2c(cc1-c1noc(-c3cc(C4CC4)[nH]n3)n1)OCO2
i	O=C(Cc1cccs1)NCC#CCOc1cccc(C(F)(F)F)c1
i	Cc1ccccc1NC(=O)Nc1cnc(-n2ccnc2)nc1
i	O=C(/C=C/c1ccc2c(c1)OCO2)N1CC(c2nc(-c3cnccn3)no2)C1
i	COc1ccc(-n2cc(-c3nc(-c4cc(OC)c(OC)c(OC)c4)no3)c3ccccc3c2=O)cc1
i	COCCOC(=O)C1=C(C)NC(=O)NC1c1ccccc1 (centres undefined)
i	Cc1ccc(-c2nsc3c(=O)n(CC(=O)Nc4ccc(F)c(Cl)c4)cnc23)cc1
i	COc1cc(NC(=O)Cn2c(C)cc(C)c(-c3nc(-c4cccc(Cl)c4)no3)c2=O)cc(OC)c1
i	COc1ccccc1-c1ccc(N2CCCC(C(=O)Nc3cccc(C(C)=O)c3)C2)nn1 (centres undefined)
i	COCCNC(=O)C(=O)Nc1cc(C)nc2ccccc12
i	CCOc1ccc(N2CCN(CC(=O)NC(C)c3ccccc3)C2=O)cc1 (centres undefined)
i	COc1ccc(C(=O)N2CCN(c3nnc(SCC(=O)Nc4ccccc4)s3)CC2)c(OC)c1
i	Cc1ccc(-c2ccc3nn(Cc4c(F)cccc4Cl)c(=O)n3n2)cc1C
i	CCOc1ccc(C(=O)NCc2sc(-c3ccccc3Cl)nc2C)cc1
i	Cc1ccccc1C(=O)NCC#CCOc1ccccc1C(N)=O
i	COc1cc(C(=O)Nc2nc(CN3CCc4ccccc4C3)cs2)cc(OC)c1OC
i	O=C(O)COc1ccc2c(c1)O/C(=C\c1c(F)cccc1Cl)C2=O
i	CC(O)(CNS(C)(=O)=O)c1ccco1 (centres undefined)
i	CN1CCCc2cc(CCNC(=O)C(=O)NCc3ccc(Cl)cc3)ccc21
i	O=C(NCC(O)C1CCCCC1)c1nc2ccccc2s1 (centres undefined)
i	O=C(CN1CCN(C(=O)C2c3ccccc3Oc3ccccc32)CC1)c1ccco1
i	CCOc1ccccc1NC(=O)Nc1ncc(C#N)s1
i	O=c1c2cc3c(cc2nc(SCc2nc(-c4cccc(Cl)c4)no2)n1Cc1ccco1)OCO3
i	Cc1cccc(N2CCN(C(=O)CCc3nnc4n(CCc5ccccc5)c(=O)c5ccccc5n34)CC2C)c1 (centres undefined)
i	COc1ccccc1OCCN1C(=O)C(O)(CC(C)=O)c2cccc(C)c21 (centres undefined)
i	COc1ccc2c(C)c(C(=O)NCc3nnc(C)o3)oc2c1
i	O=C1COc2ccccc2N1Cc1nc(-c2ccccc2Cl)no1
i	COc1cc2ncn(-c3cc(OCc4ccccc4Cl)c(C(N)=O)s3)c2cc1OC
i	CC(C)(C(=O)O)c1ccc(C(O)CCCN2CCC(C(O)(c3ccccc3)c3ccccc3)CC2)cc1 (centres undefined)
i	COc1ccc(-c2[nH]ncc2Oc2ccccc2OC)c(O)c1
i	O=C(CN1N=NC2C(=O)N(c3ccc(F)c(F)c3)C(=O)C21)Nc1ccc(Cl)cc1 (centres undefined)
i	COc1ccc(-c2cc3c(SCC(=O)Nc4ccc(OC)cc4OC)nccn3n2)cc1
i	CC(=O)CC1(O)C(=O)N(Cc2ccc(C)cc2)c2c(C)cc(C)cc21 (centres undefined)
i	CC(=O)Nc1ccc(NC(=O)c2nn(-c3ccccc3)c3ccccc3c2=O)cc1
i	Cn1cccc(C(=O)NC2CCN(c3nccs3)CC2)c1=O
i	O=C(CN1CCc2[nH]c3ccccc3c(=O)c2C1)Nc1cccc(F)c1
i	NC(=O)c1ccc(NC(=O)C2CCN(c3ccc(-c4cccnc4)nn3)CC2)cc1
i	Cc1noc(C)c1S(=O)(=O)NCC(O)c1ccc2c(c1)CCO2 (centres undefined)
i	Cn1cc(C2=C(c3cccc(Br)c3)C(=O)NC2=O)c2ccccc21
i	Cn1cc(C2=C(Oc3ccccc3)C(=O)NC2=O)c2ccccc21
i	c1ccc(-c2ccc(C(c3ccccc3)n3ccnc3)cc2)cc1 (centres undefined)
i	Cc1cn2c3c(=O)n(Cc4ccc(Br)cc4)c(=O)n(C)c3nc2n1C(C)C
i	Cc1noc(CNC(=O)C2CCN(C(=O)CCn3cnc4ccccc4c3=O)CC2)n1
i	Cc1ccc(NS(=O)(=O)c2n[nH]c(C)c2C(=O)Nc2ccc3c(c2)OCCO3)cc1
i	O=S(=O)(Nc1cccc(-c2cnc3n2CCC3)c1)c1cccs1
i	COCCCOc1ccnc(CS(=O)c2nc3ccccc3[nH]2)c1C (centres undefined)
i	O/N=C\c1cn(CC(O)COc2ccc(Cl)cc2)c2ccccc12 (centres undefined)
i	CC(Cc1ccco1)NC(=O)c1cccc(C#N)c1 (centres undefined)
i	O=C(Cn1cccc(-c2nc(-c3ccc(Cl)cc3)no2)c1=O)NCc1ccco1
i	C=CCNC(=O)c1cnn(-c2ccc(C)c(C)c2)c1-n1cccc1

Remaining list, next part:
GIRK2 act	smiles
i	COc1ccc(Cl)cc1NC(=O)C(=O)NCC(O)c1ccc2c(c1)CCO2 (centres undefined)
i	COc1ccc(OC)c(S(=O)(=O)NC2CCCC(OC(=O)Nc3ccccc3)C2)c1 (centres undefined)
i	CC(C)n1c(CN2CCN(c3cccc(Cl)c3)CC2)nc2c1c(=O)n(C)c(=O)n2C
i	COc1ccc(OC)c(COCC(O)CN2C(C)(C)CC(O)CC2(C)C)c1 (centres undefined)
i	O=C(CCn1c(=O)[nH]c2ccccc2c1=O)NCCCN1CCN(c2cccc(Cl)c2)CC1
i	COCCN(Cc1ccoc1)C(=O)c1cccn(C)c1=O
i	CC(C)c1nc2ccccc2n1CCC(=O)O
i	O=c1[nH]c(O)c(C=NN2CCOCC2)c(=O)[nH]1
i	O=C(NCCC(O)c1cccc2ccccc12)c1ccc(Br)cc1 (centres undefined)
i	Cc1ccc(-c2ccc3nn(CC(=O)Nc4cccc(Cl)c4)c(=O)n3n2)cc1C
i	COc1ccc(C(O)CN2CCN(c3ccccn3)CC2)cc1OC (centres undefined)

As a short view, 19 of the compounds above.
GIRK2 act	smiles
i	Cc1cn2c3c(=O)n(Cc4ccc(Br)cc4)c(=O)n(C)c3nc2n1C(C)C
i	Cc1noc(CNC(=O)C2CCN(C(=O)CCn3cnc4ccccc4c3=O)CC2)n1
i	Cc1ccc(NS(=O)(=O)c2n[nH]c(C)c2C(=O)Nc2ccc3c(c2)OCCO3)cc1
i	O=S(=O)(Nc1cccc(-c2cnc3n2CCC3)c1)c1cccs1
i	COCCCOc1ccnc(CS(=O)c2nc3ccccc3[nH]2)c1C (centres undefined)
i	O/N=C\c1cn(CC(O)COc2ccc(Cl)cc2)c2ccccc12 (centres undefined)
i	CC(Cc1ccco1)NC(=O)c1cccc(C#N)c1 (centres undefined)
i	O=C(Cn1cccc(-c2nc(-c3ccc(Cl)cc3)no2)c1=O)NCc1ccco1
i	C=CCNC(=O)c1cnn(-c2ccc(C)c(C)c2)c1-n1cccc1
i	COc1ccc(Cl)cc1NC(=O)C(=O)NCC(O)c1ccc2c(c1)CCO2 (centres undefined)
i	COc1ccc(OC)c(S(=O)(=O)NC2CCCC(OC(=O)Nc3ccccc3)C2)c1 (centres undefined)
i	CC(C)n1c(CN2CCN(c3cccc(Cl)c3)CC2)nc2c1c(=O)n(C)c(=O)n2C
i	COc1ccc(OC)c(COCC(O)CN2C(C)(C)CC(O)CC2(C)C)c1 (centres undefined)
i	O=C(CCn1c(=O)[nH]c2ccccc2c1=O)NCCCN1CCN(c2cccc(Cl)c2)CC1
i	COCCN(Cc1ccoc1)C(=O)c1cccn(C)c1=O
i	CC(C)c1nc2ccccc2n1CCC(=O)O
i	O=c1[nH]c(O)c(C=NN2CCOCC2)c(=O)[nH]1
i	O=C(NCCC(O)c1cccc2ccccc12)c1ccc(Br)cc1 (centres undefined)
i	Cc1ccc(-c2ccc3nn(CC(=O)Nc4cccc(Cl)c4)c(=O)n3n2)cc1C
